Compound activity: PubChem, National Center for Advancing Translational Sciences (NCATS)
HPGD inh – blocks human HPGD enzyme activity | purified HPGD, NADH fluorescence kinetic, PGE2 substrate | Potency, µM, for the others: at the highest dose activity change, negative = inhibition, most hits filed as inhibitors | 150,000 tested, 4.3% active | AID 894; active = well fitted inhibition curve with a large enough effect (not every such curve was filed as active); inconclusive = small, poorly fitted or top-dose-only effect, or another doubt; inactive = no such curve, though single readings can be large or run the other way;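 also: top concentration of the series not given in the record; plate controls included wells without enzyme; inactives centre near -10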
Target sequence (P15428 whole entry, looked up): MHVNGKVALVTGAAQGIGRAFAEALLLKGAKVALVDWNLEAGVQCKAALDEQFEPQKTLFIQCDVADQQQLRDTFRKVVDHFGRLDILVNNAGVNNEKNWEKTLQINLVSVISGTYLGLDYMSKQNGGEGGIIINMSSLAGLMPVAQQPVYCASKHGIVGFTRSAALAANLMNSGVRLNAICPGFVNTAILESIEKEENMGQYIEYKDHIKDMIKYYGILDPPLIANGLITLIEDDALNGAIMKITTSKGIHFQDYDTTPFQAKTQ
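NADH formation kinetics: reaction with 30 uM PGE2 and 1 mM NAD+ (final), 20 nM enzyme, Tris-HCl pH 8 with Tween 20, after 15 min compound preincubation at room temperature. Fluorescence change, last versus first of five reads.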
The depositor's hits bear a star; u = inconclusive; & = joins results of further samples. % is scaled to controls: 0 for no effect and ±100 for the full control effect; potency is read from the fitted curve at half-maximal effect.

SMILES	HPGD inh
C#CCOCCOCCOCCNc1nc(N2CCN(C(=O)Cn3cc(CC(C)O)nn3)CC2)nc(N2CCN(C(=O)[C@H](C)n3cc(CCCN=C(N)N)nn3)CC2)n1 (stereo partly specified)	3%
O=C(NCc1ccco1)C1CCCN(S(=O)(=O)c2cccc3nonc23)C1 (stereo unspecified)	-15%
C1=C(CN2CCOCC2)COc2c1cccc2OC[C@@H]1CNCCO1	-6%
O=C(NN1CCOCC1)c1ccc(Cl)cc1	-2%
Cc1cccc(NC(=O)Cc2noc3ccccc23)c1	u
CCOC(=O)c1c(N2C(=O)C3CC(C)=C(C)CC3C2=O)sc(C)c1C (stereo unspecified)	2%
CCC1CCCCN1C(=O)COC(=O)c1n[nH]c2ccccc12 (stereo unspecified)	-20%
O=C(CC1SC(=NC2CCCCC2)NC1=O)Nc1ccccc1 (stereo unspecified)	-17%
Cc1cccc(-n2c(C)cc(/C=C3/C(=N)N4C(c5ccccc5)=CSC4=NC3=O)c2C)c1	-25%
CCOC(=O)C1CCN(C(=O)COc2ccc(S(=O)(=O)NC(C)C)cc2)CC1	-4%
COC(=O)c1c(-c2ccccc2)csc1NC(=O)c1c(-c2ccccc2)noc1C	u
Cc1ccc(-n2c(SCC(=O)OC(C)C)nnc2-c2ccco2)cc1	-21%
COc1ccc(-c2nc(SCC(=O)Nc3nccs3)c(-c3ccc(Cl)cc3)[nH]2)cc1	-14%
COc1cc(-c2ccc(NC(=O)c3ccc(C)cc3)c(OC)c2)ccc1NC(=O)c1ccc(C)cc1	u
COc1ccc(N2C(=O)C3CCCN3C2c2ccccc2Cl)cc1 (stereo unspecified)	-20%

The list goes on, overlapping the part above by two compounds.
SMILES	HPGD inh
COc1cc(-c2ccc(NC(=O)c3ccc(C)cc3)c(OC)c2)ccc1NC(=O)c1ccc(C)cc1	u
COc1ccc(N2C(=O)C3CCCN3C2c2ccccc2Cl)cc1 (stereo unspecified)	-20%
O=C(N/N=C/c1ccc(N2CCOCC2)c([N+](=O)[O-])c1)c1ccc(F)cc1	-15%
C=CCC(CC=C)(C(=O)O)c1ccccc1	1%
COc1ccc(CC(=O)NCc2ccccn2)cc1OC	0%
O=C(NCC(c1cccnc1)N1CCN(c2ccccc2)CC1)OCc1ccccc1 (stereo unspecified)	-12%
O=C(Nc1nc(-c2cccs2)c(-c2ccccc2)s1)c1ccco1	u
CCOc1cccc(OCCCCN2CCOCC2)c1	2%
Cc1cc(C(=O)N2CCN(S(C)(=O)=O)CC2)sc1-c1ccccc1	-6%
Cc1cc(N/C(=N\S(=O)(=O)c2ccc(Cl)cc2)c2ccc(F)cc2)no1	-4%
O=C(Nc1ccccc1Cl)C1CCN(Cc2cnn(-c3ccccc3)c2-n2cccc2)CC1	-12%
Cc1cccc(CSc2ccc(-c3cccs3)nn2)c1	-18%
Cc1ccc(S(=O)(=O)N(CC(=O)NCc2ccncc2)C2CCCCC2)cc1	-7%
Nc1c(NCc2ccccc2)c2ccccc2oc1=O	u
COc1cc(OC)cc(C(=O)N[C@H](C(=O)Nc2nc3c(s2)CCCC3)C(C)C)c1	-7%
Cc1ccc([N+](=O)[O-])cc1S(=O)(=O)N(C)C	5%&-10%&-8%
CCSc1ccc2nnc(-c3ccc(F)cc3)n2n1	u
O=C(NCc1cccs1)C1CCN(S(=O)(=O)c2cccc3nsnc23)CC1	-6%
COCCn1c(SCC(=O)c2ccc3c(c2)OCCO3)nnc1-c1ccoc1C	-23%
Cn1c(=O)c2c(ncn2CC(=O)Nc2ccc(Cl)cc2Cl)n(C)c1=O	-2%
O=C(Nc1ccc(-n2cnnn2)cc1)C1CCCN1C(=O)NC1CCCCC1 (stereo unspecified)	1%
CCOC(=O)c1nc(C)[nH]c1C(=O)OCC	-5%
N#Cc1c(NC(=O)CSc2nnc(-c3ccccc3)o2)sc2c1CCCC2	-6%
O=C(Nc1ccc(Cl)cc1)C1CCC(=O)N1Cc1ccccc1Cl (stereo unspecified)	-12%
O=C(Cc1cccs1)NCCn1ccc2ccccc21	u
CCCCCNC(=O)Cc1ccc(OC)cc1	-12%
COc1ccc(C(=O)Nc2ccc(S(=O)(=O)NC(C)=O)cc2)cc1	-15%
Cc1ccc(-c2cc(C(=O)NCc3cnn(C)c3C)c3cc(Br)ccc3n2)cc1	-3%
O=C(c1cc(C(F)(F)F)cc(C(F)(F)F)c1)N1CCC2(CC1)CCN(c1ccccn1)CC2	-30%
COCCOC(=O)C1=C(C)NC2=C(C(=O)CC(C)(C)C2)C1c1ccc2c(c1)OCO2 (stereo unspecified)	u
CCOC(=O)c1cc2c(=O)[nH]ccc2nc1C	u
CCOC(=O)CSc1nc2c(c(=O)n(C)c(=O)n2C)n1CCCc1ccccc1	-1%
CC1(C)OC(=O)C(=C2CCCN2)C(=O)O1	-4%
COc1cc(CN2CCN(c3cccc(Cl)c3)CC2)cc(OC)c1OC	-5%
CC(C)NC(=S)Nc1ccc(S(=O)(=O)Nc2ncccn2)cc1	1%
COc1ccc(OC2C(=O)N(Cc3ccc4c(c3)OCO4)C2c2sccc2C)cc1 (stereo unspecified)	-10%
Cc1cccc(OCC(O)Cn2c(NCCCOC(C)C)nc3c2c(=O)[nH]c(=O)n3C)c1 (stereo unspecified)	-4%
Cc1ccc(-c2nnc(NCc3nc4ccccc4[nH]3)c3ccccc23)cc1S(=O)(=O)N(C)C	-18%
COC(=O)c1cnc2c(c1C(=O)OC)c(=O)n(C)c(=O)n2C	-23%
CC1CC(C)CN(CC(=O)N2CCCc3c2c(=O)oc2ccc(OCc4ccccc4)cc32)C1 (stereo unspecified)	-11%
O=c1c2ccccc2nnn1CSc1ccc2c(c1)OCCO2	-17%
CCC(CC)C(=O)Nc1cc(C)c2c(=O)oc3ccccc3c2n1	u
Cc1ccc(S(=O)(=O)NCCOC(=O)Nc2sc(=S)n(C)c2C)cc1	-29%
Cc1ccc(C(CC(=O)c2ccco2)SCCO)cc1 (stereo unspecified)	-13%
COc1ccc(C2NC(=S)NC(C)=C2C(=O)Nc2ccccn2)cc1OC (stereo unspecified)	-3%
N#CCSc1nnc(-c2cnccn2)n1Cc1ccccc1	-6%
COC(=O)c1cc(COc2ccc3oc(C)c(C(=O)OC(C)C)c3c2)c(C)o1	-13%
COCCN(C(=S)Nc1c(C)cccc1C)C(C)c1cccnc1 (stereo unspecified)	-3%
CNC(=O)COC(=O)c1cc(F)c(F)cc1Cl	-10%
CCN(Cc1ccccc1)c1ccccc1	-1%
Cc1ccc(S(=O)(=O)N2CCC(=O)N(CCO)CC2)cc1	-5%
Oc1ccc(/C=N/NC2=NCCCCC2)c(O)c1	u
COc1ccc(-c2nn(C)c(=O)c3ccccc23)cc1CNS(C)(=O)=O	u
CN(C)/C=N/c1sccc1C(N)=O	-7%
O=C(OCc1nc2ccccc2[n+]([O-])c1C(=O)c1ccccc1)c1cccs1	-10%
CC(C)(C)C(=O)Cn1c(NCCO)nc2ccccc21	0%
COc1ccc(-c2cn(-c3ccc(OC)cc3)c(=S)[nH]2)cc1	25µM*
O=C(CSc1nc2ccccc2c(=O)n1-c1ccc(F)cc1F)Nc1ccc2c(c1)CCC2	-21%
CCCCN(C(=O)CCC(=O)Nc1cc(C)on1)C(C(=O)NC(C)(C)C)c1cccc(OC)c1OC (stereo unspecified)	0%
Cc1cccc(C(=O)O/N=C/c2c(N3CCOCC3)n(C)c3ccccc23)c1	-14%
COCCN1CCc2c(C)nc3c(-c4ccc(OC)c(OC)c4)cnn3c21	-7%
NCCC[C@@H](CC(=O)N[C@@H]1CCNC[C@H]1C(=O)N[C@H](CC(=O)N[C@@H](CCC(=O)O)CC(=O)O)Cc1ccccc1)NC(=O)C[C@H](Cc1c[nH]c2ccccc12)NC(=O)[C@@H]1CCCC[C@H]1N	-6%

3 compounds from above, ordered by the number in HPGD inh, descending.
SMILES	HPGD inh
CN(C)/C=N/c1sccc1C(N)=O	-7%
O=C(OCc1nc2ccccc2[n+]([O-])c1C(=O)c1ccccc1)c1cccs1	-10%
Cc1cccc(C(=O)O/N=C/c2c(N3CCOCC3)n(C)c3ccccc23)c1	-14%

More records
SMILES	HPGD inh
COc1ccc(CNC(=O)Cc2nn(C)c(=O)c3ccccc23)cc1	-8%
COc1cc(OC)cc(C(=O)N2c3ccc(F)cc3CCC2C)c1 (stereo unspecified)	-5%
O=c1cc(CSc2ccccn2)nc(N2CCN(c3ccccc3)CC2)[nH]1	-4%
N#Cc1cccc(-c2nc(Nc3ccccc3)c3ccccc3n2)c1	-14%
O=c1[nH]c2ccccc2nc1/C=C(\O)C1CC1	-26%
COc1ccccc1CN1CCCC2(CCN(S(=O)(=O)c3ccccc3)CC2)C1	-3%
CCCOc1ccc2c(=O)c(N3C(=O)c4ccccc4C3=O)c(C)oc2c1	-10%
COc1cc(Br)c(CC(=O)O)cc1OC	-4%
COc1ccc(CN2C(=O)c3cccnc3C2Nc2ccc(OC)c(Cl)c2)cc1 (stereo unspecified)	-29%
COC(=O)C1=C(C)N(C)C(=O)NC1c1ccc(C)cc1 (stereo unspecified)	-7%
O=C(CSc1nnnn1-c1ccccc1)N1N=CCC1c1ccccc1 (stereo unspecified)	-5%
Cc1ccc(C)c(NC(=O)CSc2nnc(-c3ccco3)o2)c1	-16%
COc1cccc(/C=N/NC(N)=S)c1OCc1ccccc1Cl	-13%
COc1cc(/C=N/OCC(=O)Nc2cc(C)cc(C)c2)ccc1OCc1ccc(Cl)cc1	-17%
CNC(=O)CN1C(=O)c2cccc3cccc1c23	-20%

Single values from the entries so far.
N#Cc1cccc(-c2nc(Nc3ccccc3)c3ccccc3n2)c1 in HPGD inh = -14%
COc1cc(/C=N/OCC(=O)Nc2cc(C)cc(C)c2)ccc1OCc1ccc(Cl)cc1 in HPGD inh = -17%
COc1cccc(/C=N/NC(N)=S)c1OCc1ccccc1Cl in HPGD inh = -13%
COc1ccc(CNC(=O)Cc2nn(C)c(=O)c3ccccc23)cc1 in HPGD inh = -8%
COc1cc(Br)c(CC(=O)O)cc1OC in HPGD inh = -4%
O=C(CSc1nnnn1-c1ccccc1)N1N=CCC1c1ccccc1 (stereo unspecified) in HPGD inh = -5%

(more compounds)
SMILES	HPGD inh
O=C(CCSc1nnc2scc(-c3ccccc3)n12)NCc1ccc2c(c1)OCO2	u
COc1cc(CNC(=O)CCCCCCC(C)C)ccc1O	-7%&-7%
Fc1ccccc1OCCCCCN1CCCC1	-3%
CC1=[N+](C)N(c2ccccc2)C(=O)C1N=Cc1ccc(Cl)cc1 (stereo unspecified)	-12%
CC(Oc1ccc(Cl)cc1Cl)C(=O)Nn1cnnc1 (stereo unspecified)	4%
COC(=O)[C@H](Cc1ccccc1)NC(=O)N1CCN(Cc2ccccc2)CC1	-5%
COc1cc(OC)c(OC)cc1CN1CCc2ccccc2C1	2%
COc1ccc(C2C(C(C)=O)=C(O)C(=O)N2c2nccs2)cc1OC (stereo unspecified)	-18%
CCC(=O)Nc1ccc(C(=O)Nc2ccc3c(c2)OCO3)cc1	-8%
Cc1oc(-c2ccc(Cl)cc2)nc1CN1CCC(C(=O)NCc2ccco2)CC1	-11%
O=C(COc1ccccc1Cl)Nc1ccc(Cl)cn1	-26%
CC1CCC/C(=N\NC(=O)COc2ccccc2Cl)C1 (stereo unspecified)	-1%
O=C=Nc1ccc(Cl)c(Cl)c1	-10%
CCOC(=O)N1CCN(C(=O)CN(c2ccc(OCC)cc2)S(C)(=O)=O)CC1	-6%
CC(=O)N(NC(=O)c1ccc(C)cc1)C1CC(=O)N(c2ccccc2Cl)C1=O (stereo unspecified)	3%
COc1cccc(-n2c(SCc3cc(=O)oc4cc(O)c(O)cc34)nc3ccccc3c2=O)c1	u
CC(C)Nc1nc(NC(C)C)nc(C(=O)OCCO)n1	-4%
COc1cc(C)c(CC/C(C)=C/C=C/C(C)=O)c(C)c1C	-18%
Cc1ccccc1OCC(O)Cn1c(=N)n(CCN2CCOCC2)c2ccccc21 (stereo unspecified)	-10%
Fc1cc(Br)ccc1NC(=S)Nc1ccccc1	u
COC(=O)c1sc2ccccc2c1NC(=O)c1ccc(S(=O)(=O)N2CCC(C)CC2)cc1	-27%
CCOC(=O)N1CCC(Nc2nc3ccccc3n3nnnc23)CC1	u
CC(Oc1ccccc1)c1ccnn1S(=O)(=O)c1ccccc1 (stereo unspecified)	-7%
CC(C)NC(=O)C1CC(=O)N(C(C)c2ccccc2)C1 (stereo unspecified)	-10%
COC(=O)C1C(=O)C2=C(CC1C)NC(C)=C(C(=O)OC1CCCCC1)C2c1ccc(N(C)C)cc1 (stereo unspecified)	-16%
O=C(CCNC(=O)c1ccccc1Cl)Nc1nc(-c2ccc3ccccc3c2)cs1	u
COc1ccccc1C(=O)Nc1ccccc1SC	0%
NS(=O)(=O)c1cccc(NC(=O)CN2CCN(Cc3ccc4c(c3)OCO4)CC2)c1	-11%
CC1(C)CC(=O)c2c(Cc3ccccc3)n[nH]c2C1	u
C/C=C(/C)C(=O)O[C@H]1[C@@H](O)c2c(ccc3ccc(=O)oc23)OC1(C)C	u
CN(C)CCNC(=S)Nc1ccc(Cl)cc1Cl	-1%
COc1ccccc1C1NC=C([N+](=O)[O-])C=C1[N+](=O)[O-] (stereo unspecified)	3.5µM*
Cc1cc(NC(=O)c2cccc(F)c2)no1	-10%
COc1ccc2nc(NC(=O)CN3CCOCC3)sc2c1	-1%
O=C(NC1CCCC1)c1cccc(Cn2cc([N+](=O)[O-])cn2)c1	-13%
CC1CCN(c2ncnc3nc[nH]c23)CC1	-9%
CCC[C@H](Sc1nc(N)nc2nc[nH]c12)C(=O)O	-13%

Shown as a hit in HPGD inh (from the list above):
SMILES	HPGD inh
COc1ccc(-c2cn(-c3ccc(OC)cc3)c(=S)[nH]2)cc1	25µM*
COc1ccccc1C1NC=C([N+](=O)[O-])C=C1[N+](=O)[O-] (stereo unspecified)	3.5µM*

Not all compounds are listed (hit frequency here may not be typical).
